VDR inh: inhibitors of human vitamin D receptor | VDR-SRC2-3 peptide fluorescence polarization, 2 h | Potency, µM, for the others: max response, negative = inhibition, most hits filed as inhibitors | actives 0.93% (n = 400,000); active = well fitted inhibition curve with a large enough effect; inconclusive = small, poorly fitted or top-dose-only effect, or another doubt; inactive = no such curve, though single readings can be large or run the other way; note: series mostly up to about 120 µM
Target sequence (P11473 whole entry, looked up): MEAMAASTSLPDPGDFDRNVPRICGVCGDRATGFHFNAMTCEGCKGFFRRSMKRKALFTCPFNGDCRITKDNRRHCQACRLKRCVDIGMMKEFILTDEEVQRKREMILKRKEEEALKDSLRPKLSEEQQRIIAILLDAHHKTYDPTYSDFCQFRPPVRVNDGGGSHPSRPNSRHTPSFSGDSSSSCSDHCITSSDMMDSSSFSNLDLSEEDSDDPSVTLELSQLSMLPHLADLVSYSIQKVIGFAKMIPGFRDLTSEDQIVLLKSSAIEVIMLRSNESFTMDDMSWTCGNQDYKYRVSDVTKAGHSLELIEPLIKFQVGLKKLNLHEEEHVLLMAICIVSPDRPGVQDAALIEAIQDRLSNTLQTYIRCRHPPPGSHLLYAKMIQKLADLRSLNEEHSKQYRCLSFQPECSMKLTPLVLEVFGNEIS
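Inhibition of the VDR/SRC2-3 peptide interaction is quantified by fluorescence polarization. Compounds (23 nl, pintool) incubate with the reagents for 2 hours at ambient room temperature.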
The depositor's hits bear a star; ? = inconclusive; [ ] = remark or other dose. % is set by controls: 0 for no effect and ±100 for the full control effect; potency is the fitted concentration of half-maximal effect. This is a subset (hit frequency here may not be typical).

SMILES	VDR inh
COc1ccc(CN2CCN(C(=O)c3ccco3)CC2)cc1OCc1ccccc1	12%
O=c1[nH]c(CN2CCCCC2)nc2c1C1(CCCCC1)Cc1ccccc1-2	13%
Cc1cccc(NC(=S)N2CCC(C(=O)c3ccc(F)cc3)CC2)c1	?
Cc1cccc(N(C(=O)c2csnn2)C(C(=O)NC2CCCCC2)c2ccncc2)c1 (stereo not given)	7%
Clc1ccc(Nc2ccc(-n3ccnc3)nn2)cc1Cl	5%
O=C(Nc1ccccc1C(F)(F)F)c1noc2c1CCCC2	-12%
C/C(=C/Cc1c(O)cc2oc(C)cc(=O)c2c1O)COC1OC(CO)C(O)C(O)C1O (stereo not given)	9%
O=C(NC(=S)Nc1nc(-c2ccc(Cl)cc2)cs1)c1cccs1	?
COC(=O)CCC(C)N1CCC(Oc2ccc(C(=O)N3CCCC3)cc2)CC1 (stereo not given)	-16%
Cc1cc(NC(=O)CSc2ncc(C(=O)Nc3ccccc3)c(=O)n2C)no1	4%
Cc1cccn2c(=O)nc(SCC(=O)N3CCCC3)nc12	-22%
COc1ccccc1CNc1nc(-c2ccc3c(c2)OCO3)nc2ccccc12	-6%
Cc1cccc(C)c1Nc1nnc(SCc2cn3cccc(C)c3n2)s1	-7%
O=C(NCC(c1ccc2c(c1)OCO2)N1CCN(c2ccc(F)cc2)CC1)c1cccc([N+](=O)[O-])c1 (stereo not given)	-2%
COCCNC(=O)c1onc(CSc2ccc(Cl)cc2)c1C(=O)O	-12%
O=C(Nc1ccc(S(=O)(=O)Nc2cnc3ccccc3n2)cc1)c1ccc(Cl)cc1Cl	-16%
CN1c2ccccc2N(C)C1c1c(O)ccc2ccccc12	-23%
COCCn1c(SCC(=O)Nc2ccc(NC(=O)c3ccco3)c(OC)c2)nc2ccccc2c1=O	7%
CC(=O)OC1CC(OC(C)=O)[C@]2(C)C(CC(OC(C)=O)[C@]3(C)C2CC[C@@]2(C)C(c4ccoc4)OC(=O)C4O[C@]432)C1(C)C (stereo not given in full)	-1%
CCCC1(C(=O)OC)NC(c2cccc(F)c2)C2C(=O)N(CC)C(=O)C21 (stereo not given)	1%
NC(N)=Nc1nc(C2COc3ccccc3O2)cs1 (stereo not given)	-8%
COc1ccccc1NC(=O)/C=C/c1cc([N+](=O)[O-])ccc1OC(F)F	-9%
CCOc1cc(C)nc(NCc2ccccc2)n1	-3%
CCN(CC)CC(O)CN1c2ccccc2Sc2ccccc21 (stereo not given)	-9%
CSc1ncccc1C(=O)OCC(=O)NCCC1=CCCCC1	-4%

Rewritten comma-delimited: 2 of the compounds above.
smiles,VDR inh
COc1ccccc1CNc1nc(-c2ccc3c(c2)OCO3)nc2ccccc12,-6%
CCOc1cc(C)nc(NCc2ccccc2)n1,-3%

The list continues.
SMILES	VDR inh
COc1ccc(CNC(=O)COC(=O)CCCOc2ccc(Cl)cc2Cl)cc1OC	-2%
COc1ccc(-n2c(/C=C/c3cccc4ccccc34)nc3ccccc3c2=O)cc1OC	0%
CCOC(=O)N1CCc2c(sc(NCc3cccc(F)c3)c2C(=O)Nc2ccccc2OCC)C1	-13%
O=C(COC(=O)Cc1c(F)cccc1Cl)NCc1ccc2c(c1)OCO2	-1%
Cc1nc2ccc(S(=O)(=O)NC(C(=O)NCc3ccc4c(c3)OCO4)C(C)C)cc2s1 (stereo not given)	-8%
COc1ccc(-c2c(C)nc3c(-c4ccc(F)cc4)cnn3c2N)cc1	-18%
CC1(C)NC(=O)N(CC(=O)N2CCN(S(=O)(=O)c3cc(Cl)ccc3Cl)CC2)C1=O	2%
O=C(O)c1ccccc1NC(=O)N1c2ccccc2Sc2ccccc21	?
Cc1ccccc1-c1nc(CN2CCC(C(=O)NCc3ccc(F)cc3)CC2)c(C)o1	-14%
CC(C)COc1nc2ccccc2nc1N1CCN(C)CC1	-25%
CC(C)C1CCN(C(=O)C2CCC(=O)N(CCc3ccc(Cl)cc3)C2)CC1 (stereo not given)	-22%
O=C(Nc1cccc2ccccc12)c1ccc(Br)o1	11%
Cc1ccccc1N1CCN(S(=O)(=O)c2ccc3ccccc3c2)CC1	-18%
CCOc1ccc(OCC)c(NC(=O)C2CCN(S(=O)(=O)c3c(C)[nH]c(=O)[nH]c3=O)CC2)c1	-24%
Cc1[nH]c(=O)[nH]c(=O)c1/C=N/NC(=O)[C@@H](N)CC(C)C	-5%
COc1ccc(CC(=O)OCC(=O)c2c[nH]c3ccccc23)cc1	9%
CCCCOc1ccc(C(=O)CCN2CCOCC2)cc1	32µM*
COC(=O)NNC(=O)C1CCC(C(=O)NNC(=O)OC)CC1 (stereo not given)	-1%
Cc1cc(NC(=O)COC(=O)c2ccccc2[N+](=O)[O-])no1	-2%
CCOc1ccc(-c2ncncc2-c2ccc(OC)c(OC)c2)c(O)c1	-10%
CC(C)(C)c1ccc(S(=O)(=O)N2CCN(c3ccccn3)CC2)cc1	17%
COc1ccc(CNC(=O)CN(C(=O)c2ccc(CN3CCOCC3)o2)C2CCCC2)cc1	-4%
CC1=C(C(=O)OCC2CCCO2)C(c2coc3ccc(C)cc3c2=O)C2=C(CCCC2=O)N1 (stereo not given)	14%
CCCNC(=O)C(Cc1cccc(C#N)c1)NC(=O)c1ccc(C#N)cc1 (stereo not given)	-9%
O=C(O)CCCc1nc2ccccc2s1	5%

Shown as a hit in VDR inh (from the list above):
SMILES	VDR inh
CCCCOc1ccc(C(=O)CCN2CCOCC2)cc1	32µM*

14 compounds already listed, sorted by number of heavy atoms, falling.
SMILES	VDR inh
CCOC(=O)N1CCc2c(sc(NCc3cccc(F)c3)c2C(=O)Nc2ccccc2OCC)C1	-13%
COc1ccc(-n2c(/C=C/c3cccc4ccccc34)nc3ccccc3c2=O)cc1OC	0%
Cc1ccccc1-c1nc(CN2CCC(C(=O)NCc3ccc(F)cc3)CC2)c(C)o1	-14%
COc1ccc(CNC(=O)COC(=O)CCCOc2ccc(Cl)cc2Cl)cc1OC	-2%
CC1(C)NC(=O)N(CC(=O)N2CCN(S(=O)(=O)c3cc(Cl)ccc3Cl)CC2)C1=O	2%
CCCNC(=O)C(Cc1cccc(C#N)c1)NC(=O)c1ccc(C#N)cc1 (stereo not given)	-9%
Cc1ccccc1N1CCN(S(=O)(=O)c2ccc3ccccc3c2)CC1	-18%
CC(C)(C)c1ccc(S(=O)(=O)N2CCN(c3ccccn3)CC2)cc1	17%
COc1ccc(CC(=O)OCC(=O)c2c[nH]c3ccccc23)cc1	9%
COC(=O)NNC(=O)C1CCC(C(=O)NNC(=O)OC)CC1 (stereo not given)	-1%
CCCCOc1ccc(C(=O)CCN2CCOCC2)cc1	32µM*
Cc1[nH]c(=O)[nH]c(=O)c1/C=N/NC(=O)[C@@H](N)CC(C)C	-5%
O=C(Nc1cccc2ccccc12)c1ccc(Br)o1	11%
O=C(O)CCCc1nc2ccccc2s1	5%

Remaining list, next part.
SMILES	VDR inh
CCOc1ccc(CCNC(=O)c2cc3c(s2)-c2c(C)cccc2OC3)cc1	-1%
COc1ccc(NC(=O)CCN2C(=O)/C(=C/c3ccc4c(c3)OCO4)SC2=S)cc1	13%
CCc1cc(C(=O)N(CCCOC)c2c(N)n(Cc3ccccc3)c(=O)[nH]c2=O)sc1C	-10%
Cc1ccc(Cn2c(=O)c3ccccc3n3c(CCC(=O)O)nnc23)cc1	10%
CCN(CC)c1ccc2cc(-c3nc4ccccc4n3C)c(=O)oc2c1	?
O=C(O)c1cc(S(=O)(=O)Nc2ccc3cn[nH]c3c2)ccc1Br	12%
CCOC(=O)c1c(S(=O)(=O)N2CCC(C(=O)N3CCN(c4ccccc4F)CC3)CC2)c(C)n(C)c1C	11%
O=C(CN1C(=O)c2ccc([N+](=O)[O-])cc2C1=O)NC1CCS(=O)(=O)C1 (stereo not given)	-8%
O=[N+]([O-])c1cc(CN(CCO)CCO)ccc1O	4%
CCOCCCNC(=O)c1ccc(Cn2c(=O)c3cccn3c3cccnc32)cc1	5%
CC(=O)N1CCc2cc(S(=O)(=O)NC(C(=O)Nc3nc(C)cs3)C(C)C)ccc21 (stereo not given)	14%
CC1CCc2c(sc(NC(=O)/C=C/c3cccs3)c2C(=O)O)C1 (stereo not given)	-15%
COCCCNC(=O)C[C@H]1C[C@H](C(=O)N2CCOCC2)[C@@]2(C)c3[nH]c4ccc(Cl)cc4c3CCN2C1=O	-11%
O=C(CCSc1nc(-c2ccco2)cc(C(F)(F)F)n1)NCCc1ccccc1	-28%
COc1ccc(N2CCN(C(=O)COC(=O)c3cccc(OC)c3O)CC2)cc1	-2%
O=C(NCCS(=O)(=O)N1CCCC1)c1ccccc1	18%
O=C(COc1ccccc1Cl)N1CCN(c2ccc([N+](=O)[O-])c(N3CCCCC3)c2)CC1	6%
Cc1cccc(CS(=O)(=O)Cc2ccc(C(=O)NCc3ccc(F)cc3)o2)c1	4%
O=C(Oc1ccc(N(C(=O)c2ccncc2)S(=O)(=O)c2ccc(F)cc2)cc1)c1ccncc1	?
COc1ccc2c(c1)CCc1sc(NC(=O)c3ccc(Cl)cc3)nc1-2	-5%
CC(C)CNc1nc(NC(C)(C)C)nc(Oc2ccc(=O)n(-c3ccccc3)n2)n1	12%
CCN(/N=C/c1ccccc1)c1cc(=O)n(C)c(=O)[nH]1	-9%
Cc1ccc(S(=O)(=O)N2CCN(C(=O)c3cc(=O)c4ccccc4o3)CC2)cc1	14%
Cc1cc(N(C(=O)c2ccco2)C(C(=O)NC2CCCCC2)c2ccccc2)ccc1-n1cnnn1 (stereo not given)	4%
COC(=O)CC(NC(=O)CN1CCN(c2ccc(F)cc2)CC1)c1cccc(F)c1 (stereo not given)	34%[activator]
Later entries.
SMILES	VDR inh
CCOC(=O)c1cc(C)nc(S(C)(=O)=O)c1C#N	-9%
COC(C(=O)NC1CC1)c1ccccc1 (stereo not given)	-16%
CCCOc1ccc(C2=CC(=O)C[C@H](c3ccc(OC)cc3)C2)cc1	2%
c1ccc(-c2[nH]ncc2CN2CCc3ccccc3C2)cc1	-14%
CCc1ccccc1NC(=O)CSc1nnc([C@H](CCSC)NC(=O)OC(C)(C)C)o1	-2%
Cc1cc(C)c2nc(N3CCC(C(=O)NCC4CCCO4)CC3)sc2c1 (stereo not given)	-27%
CC1(C)Oc2c(ccc(O)c2CN2CCOCC2)C2=C1CCCC2	-5%
Cc1ccsc1/C=N/NC(=O)c1cccs1	7%
O=C(O)CC(c1ccccc1)n1cnnn1 (stereo not given)	3%
CC(=O)Nc1ccc(NS(=O)(=O)c2cc(Cl)sc2Cl)cc1	9%
Cc1ccc(CN2CCN(CC(=O)NCc3ccccc3)CC2)cc1	11%
Cc1cccc(Nc2sc(C(=O)c3cc4cc(Cl)ccc4o3)c(N)c2C#N)c1	5%
COc1ccc(NC(=O)COC(=O)c2ccc(S(=O)(=O)N3CCCCCC3)cc2)c(OC)c1	-19%
O=C(CSc1nnc2c(n1)[nH]c1ccccc12)NCc1ccco1	-4%
CCc1ccc(CNC(=O)c2ccc(-n3c(C)cc4c3CCC(C)C4)cc2)cc1 (stereo not given)	9%
N[C@@H](Cn1ccc(=O)c(O)c1)C(=O)O	1%
CCCCN(CC)CCOc1cccc2ccccc12	-11%
COc1ccc([C@@H]2[C@@H]3C(=O)N(C(C)(C)C)C(=O)[C@@H]3[C@]3(Cc4ccc(Cl)cc4)C(=O)N(c4cccc(Br)c4)C(=O)N23)cc1	-16%
CCOc1ccc(N(C)C(=O)CCc2nnc3ccc(N4CCC5(CC4)OCCO5)nn23)cc1	-15%
COc1ccc(CN2CCN(C(=O)c3cccc4ccccc34)CC2)cc1OC	-14%
N#C/C(=C\c1cccs1)Sc1nc2ccccc2s1	-16%
CCn1nc(C)c(CNC(=O)C2CCC(=O)N(CCc3ccc(Cl)cc3)C2)c1C (stereo not given)	-17%
COc1cc(C2c3cc4c(cc3C(O)C3COC(=O)C23)OCO4)cc(OC)c1OC (stereo not given)	-6%
Cc1ccc(N2CCN(C(=O)c3cc(C(=O)c4ccccc4C)c[nH]3)CC2)c(C)c1	0%
O=C(CSc1nccc(=O)[nH]1)Nc1ccc2c(c1)OCCO2	-13%
Continued:
SMILES	VDR inh
CC1CC(C)CN(S(=O)(=O)c2ccc(C(=O)N3CCN(c4ccccc4)CC3)cc2)C1 (stereo not given)	-16%
Cn1c(SCC(=O)NC(=O)c2cccc([N+](=O)[O-])c2)nnc1-c1ccc(F)cc1	14%
COc1ccc(Cl)cc1C(=O)NNC(=O)c1ccncc1	-23%
CCc1nc(N2CCN(C(=O)c3ccco3)CC2)c2oc3ccccc3c2n1	-1%
Cc1cc2c(cc1NC(=O)c1ccc(C(C)(C)C)cc1)n(C)c(=O)c(=O)n2C	10%
COc1ccc(S(=O)(=O)N2CCCCC2C(=O)O)cc1OC (stereo not given)	2%
CCc1ccc(NC(=O)C(=O)NCC(c2ccc3c(c2)OCO3)N2CCN(C)CC2)cc1 (stereo not given)	5%
COc1ccc(C(=O)N2CCC3(CC2)NCCc2[nH]cnc23)cc1	-10%
O=C(O)C(NC(=O)c1ccccc1)=C(Cl)Cl	-7%
Cc1cc(/C=C2\SC(N)=NC2=O)c(C)n1-c1ccc(F)cc1	-4%
O=C(CCc1ccccc1)NC1(Cc2ccccc2)CCN(CCCc2ccccc2)C1=O (stereo not given)	-7%
COc1ccccc1NC(=O)CCC(=O)OCc1ccc(Cl)cc1	-10%
CCNC(=S)NC1CC2CCC(C1)N2Cc1ccccc1 (stereo not given)	43%[activator]
C#CCOCCOCCOCCNc1nc(N2CCN(C(=O)Cn3cc(CC(C)O)nn3)CC2)nc(N2CCN(C(=O)[C@H]([C@@H](C)O)n3cc(CCCCN)nn3)CC2)n1 (stereo not given in full)	-20%
Cc1ccc(NC2CCCN(C(=O)c3cccnc3)C2)cc1C (stereo not given)	4%
CC1CCCN(CCCNC(=O)C2CCCN(c3ncnc4c3nc3n4CCCCC3)C2)C1 (stereo not given)	-14%
COc1cc(OC)nc(N/N=C(\c2ccccc2)c2ccncc2)n1	-18%
CCN(CC)C(=O)CN1C(=O)C2(OCC(C)(c3ccccc3)CO2)c2ccccc21 (stereo not given)	4%

Quoted from the listing.
VDR inh with CCc1ccc(NC(=O)C(=O)NCC(c2ccc3c(c2)OCO3)N2CCN(C)CC2)cc1 (stereo not given) is entered as 5%
VDR inh with COc1ccc(S(=O)(=O)N2CCCCC2C(=O)O)cc1OC (stereo not given) is entered as 2%
